# HCMV NEC inh – disrupts HCMV UL50-UL53 complex binding; HTRF UL50-UL53 interaction, normalized percent inhibition; inhibition, % (concentration not given with the values); actives 0.15% (n = 190,000); AID 1918969;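 active = both replicates at 50% or more, plus weaker picks with an unusually low signal ratio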;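 note: stock transfer was 100 nL into about 20 µL; 0% = negative control wells and 100% = wells with untagged competitor protein; inactives centre near -12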
# GIV Gai3 FP – GIV-Galpha-i interaction inhibition; percent of control (FP), % (concentration not given with the values); P08753; actives 0.42% (n = 210,000); Galpha-i3/FITC-GIV peptide fluorescence polarization, 90 min; hits give low values; scaled: aluminum fluoride 0%, vehicle 100%;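 active = replicate mean at 85% of control or lower, very high polarization wells dropped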;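 note: wells of about 15 µL received 100 nL stock; the first replicate is given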
# Target sequence (P08753 whole entry, looked up): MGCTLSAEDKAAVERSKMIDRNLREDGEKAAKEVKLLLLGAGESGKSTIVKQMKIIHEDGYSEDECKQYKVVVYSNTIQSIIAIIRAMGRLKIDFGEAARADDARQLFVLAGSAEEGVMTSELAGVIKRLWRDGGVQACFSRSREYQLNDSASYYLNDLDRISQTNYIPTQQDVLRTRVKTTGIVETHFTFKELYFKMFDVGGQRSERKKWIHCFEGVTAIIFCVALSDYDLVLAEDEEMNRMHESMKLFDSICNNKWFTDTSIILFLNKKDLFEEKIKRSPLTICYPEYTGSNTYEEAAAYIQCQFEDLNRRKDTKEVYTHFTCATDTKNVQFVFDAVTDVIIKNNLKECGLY
# Sa growth 42C – S. aureus growth inhibition; S. aureus RN4220 growth, OD600, 20 h, 42 °C; hits give low values; relative growth, % (no concentration beside the values); actives 0.53% (n = 170,000); AID 720641;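 active = growth at 42 °C up to 50% and 20 or more points under that at 30 °C, or under 10% at both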;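 note: 300 nL library stock went into each well; scaled to the means of positive and negative controls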
# Sa growth 42C second temp – recorded beside Sa growth 42C, whose call it bears; relative growth, %; measured here: growth at 30 °C;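 optical density after 20 h as mean of two plates; 100% = untreated growth and lower means inhibition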
# * = called active by the depositor; / = no result given; & = joins results of further samples.
# Below each compound – HCMV NEC inh | GIV Gai3 FP | Sa growth 42C | Sa growth 42C second temp
- COC(=O)c1c(F)c(F)c(Oc2ccc(C)cc2)c(F)c1N1CCCC1
  -22 | 101 | 82 | 76
- COC(=O)C1=C(Nc2ccc(C)cc2)CC(C)(O)C(C(=O)OC)C1c1ccc(Br)cc1 (stereo unspecified)
  -4 | / | 87 | 94
- Cc1cc(C)c(NC(=O)Cn2c(=O)nc(-c3ccccc3)c3cc(Cl)ccc32)c(C)c1
  / | 103 | 96 | 87
- Cc1cccc(Cn2c(C)nc3onc(C)c3c2=O)c1
  -24 | 106 | / | /
- Cc1ccc(SCC(=O)Nc2ccc3oc(-c4cccc(C)c4)nc3c2)cc1
  -12 | 103 | 110 | 87
- CCOC(=O)N1CCN(CC(O)COc2ccccc2C(C)C)CC1 (stereo unspecified)
  8 | 108 | 95 | 91
- Cc1ccc(C(=O)Nc2ccc3oc(-c4cccnc4)nc3c2)cc1
  -17 | 101 | 76 | 66
- CS(=O)(=O)N1CCC(Cc2ccccc2)CC1
  -14 | / | 91 | 96
- CC(C)N(C(=O)CN1C(=O)c2ccccc2S1(=O)=O)c1ccccc1
  11 | / | 99 | 101
- CSc1n[nH]c(=O)c2cc(-c3cccs3)nn12
  7 | 109 | / | /

# (listing goes on)
# Below each compound – HCMV NEC inh | GIV Gai3 FP | Sa growth 42C | Sa growth 42C second temp
- COc1ccc(NC(=O)CN(c2ccc(C)cc2)S(=O)(=O)c2cccs2)cc1OC
  -13 | 103 | 102 | 92
- O=C(C1CCCN(c2ccnc(-c3cccc(F)c3)n2)C1)N1CCN(Cc2ccccc2)CC1 (stereo unspecified)
  -6 | 109 | / | /
- CCCS(=O)(=O)Nc1cccc(-c2cn3c(n2)SCC3)c1
  -13 | 104 | 98 | 84
- CCOc1ccc(N(C)C(=O)C2CCC(=O)N2S(=O)(=O)c2ccccc2)cc1 (stereo unspecified)
  -17 | 102 | / | /
- Nn1c(Cc2ccccc2F)nnc1SCC(=O)N1CCc2ccccc2C1
  -20 | / | 95 | 82
- CCOc1ccc(NC(=O)CN2C(=O)C(c3ccc(Cl)cc3)=NC2(C)C)cc1
  -18 | 99 | 108 | 86
- COc1cccc(-c2cc(C(=O)N3CCCC3)no2)c1
  -25 | 98 | 85 | 81
- COc1ccc(C(C(=O)NCc2ccccc2)N(C(=O)Cn2nnc3ccccc32)c2ccc(OC)cc2)cc1 (stereo unspecified)
  12 | 103 | 99 | 79
- O=C(c1cc(-c2ccc(Br)cc2)n[nH]1)N1CCN(S(=O)(=O)c2ccc(Cl)s2)CC1
  / | 98 | 85 | 89
- CSc1nnc(-c2ccc(Cl)cc2Cl)n1Cc1ccco1
  -9 | 99 | 99 | 94

# The list continues.
# Below each compound – HCMV NEC inh | GIV Gai3 FP | Sa growth 42C | Sa growth 42C second temp
- COc1ccc(NC(=O)C(c2ccccc2)N(Cc2ccco2)C(=O)Cc2cccs2)cc1 (stereo unspecified)
  -2 | 97 | 94 | 84
- CCCCOc1ccc(C(=O)NCc2csc(-c3ccccc3)n2)cc1
  -10 | 101 | / | /
- CS(=O)(=O)C1=NN2C(=N)/C(=C\c3ccco3)C(=O)N=C2S1
  / | 98 | 88 | 86
- COC(=O)c1cc(=O)nc2sccn12
  -20&-5 | 100&96 | 93 | 87
- COc1ccc2c(c1)sc1nc(-c3ccc(C)o3)c(NC3CCCCC3)n12
  -15 | 99 | 37 | 27
- CS(=O)(=O)N1CCC(C(=O)NCCN2CCCCCC2)CC1
  / | 100 | 118 | 89
- COC(=O)CCc1[nH]c2ccccc2c1Sc1ccccc1
  -5 | / | 132 | 70
- COc1ccccc1-c1nnc(SCC(=O)C(C)(C)C)n1Cc1ccco1
  -10 | / | 95 | 93
- Cc1nn(C(=O)c2ccccc2)c(C)c1Oc1ccccc1
  5 | 102 | 118 | 94
- CCCNC(=O)C1CC(c2ccc(OC)cc2)=NO1 (stereo unspecified)
  / | 104 | 100 | 91

# (continued)
# Below each compound – HCMV NEC inh | GIV Gai3 FP | Sa growth 42C | Sa growth 42C second temp
- Cc1cnc(NC(=O)c2cccc3ccccc23)s1
  -24 | / | 95 | 90
- O=C(NCCN1CCOCC1)c1c(Cl)cccc1Cl
  15 | 103 | 93 | 76
- Cc1ccccc1NC(=O)C1CC(O)CN1C(=O)OCc1ccccc1 (stereo unspecified)
  1 | / | 88 | 92
- c1c2c(cc3c1OCO3)OCN(CC13CC4CC(CC(C4)C1)C3)C2
  -53 | 101 | 86 | 88
- COC(=O)c1ccccc1NC(=O)COC(=O)/C=C/c1ccco1
  -16 | / | 94 | 96
- CC1CCN(C(=O)c2ccccc2NC(=O)Nc2ccccc2)CC1
  -36 | 103 | 88 | 97
- COc1ccc2c(c1)[nH]c1c(=O)n(CCN3CCCCC3C)cnc12 (stereo unspecified)
  -7 | 103 | 102 | 88
- COc1cc(OC)cc(-c2nnc(SCC(=O)N=c3sccn3Cc3ccc(C)cc3)o2)c1
  -18 | / | 101 | 90
- Cc1cccc(C(=O)C2CCN(S(=O)(=O)c3ccc(C(=O)O)cc3)CC2)c1
  2 | 101 | 108 | 92
- CCn1c(=O)cc(OCC(=O)N2CCN(c3ccccn3)CC2)c2ccccc21
  -29 | 103 | / | /

# The list continues:
# Below each compound – HCMV NEC inh | GIV Gai3 FP | Sa growth 42C | Sa growth 42C second temp
- O=C(Cn1c(=O)n(Cc2ccc3c(c2)OCO3)c(=O)c2oc3ccccc3c21)Nc1cccc(F)c1
  -21 | 102 | / | /
- Cc1nnc2sc(-c3cccc(F)c3)nn12
  -15 | 102 | / | /
- Cn1c(SCC(=O)Nc2ccccc2)nnc1-c1cncc(C#Cc2ccccc2)c1
  -19 | 102 | 96 | 85
- Cc1ccc(C)c(NCN2C(=O)CSC2=O)c1
  -13 | 105 | 87 | 88
- O=C(NCc1ccc(-c2csnn2)cc1)c1cc(Cl)cc(Cl)c1
  -36 | 102 | 101 | 87
- Cc1ccc(-n2nnc(C(=O)OCc3ccccc3F)c2C)cc1Cl
  -31 | 101 | / | /
- CC(C)c1ccc(NC(=S)Nc2cccc(C(F)(F)F)c2)cc1
  -30 | 100 | -2.1* | 0.2*
- COC(=O)c1ccc(CSc2nc3nc[nH]c3c(=O)[nH]2)cc1
  -19 | 104 | / | /
- C=CCN1CNc2c(c(=O)[nH]c(=S)n2-c2cccc(C)c2C)C1
  -12 | 110 | 85 | 96
- C#CCSc1nc2c(c(=O)n1C1CCOC(C)(C)C1)C1(CCCC1)Cc1ccccc1-2 (stereo unspecified)
  -1 | 100 | / | /

# (further entries)
# Below each compound – HCMV NEC inh | GIV Gai3 FP | Sa growth 42C | Sa growth 42C second temp
- O=C(NCc1ccc(F)cc1)c1cc2c(=O)n3ccccc3nc2s1
  -62 | 103 | 94 | 113
- O=C(Cn1nc(-c2ccccc2)c2cc(Cl)ccc21)NC1CCCC1
  -2 | 100 | / | /
- CCS(=O)(=O)N1CC(=O)N(c2cc(C)cc(C)c2)C(C)(C(=O)NC2CCCCC2)C1 (stereo unspecified)
  / | 105 | 123 | 93
- CC(=O)c1cccc(NC(=O)c2cc(-c3ccc4c(c3)OCCO4)on2)c1
  -16 | 104 | 115 | 78
- CC(C)NC(=O)CSc1nc2ccccc2n2c(C(C)C)nnc12
  -58 | 108 | / | /
- Cc1nc2cccc(C(=O)NCc3ccccc3)c2o1
  -17 | 100 | 86 | 73
- C=CCn1c(SCC(=O)NCc2ccco2)nc2sc3c(c2c1=O)CCC3
  -23 | 99 | / | /
- Cc1c(-c2nc(-c3ccccc3)no2)nnn1-c1ccc(Br)cc1
  8 | 110 | / | /
- Cc1ccccc1NC(=O)C(C)n1nc(-c2ccc(C)c(S(=O)(=O)N3CCOCC3)c2)ccc1=O (stereo unspecified)
  -22 | 97 | / | /
- CCOC(=O)c1ccc(N2CCCC2)cc1
  0 | / | 104 | 88

# Remaining list, next part:
# Below each compound – HCMV NEC inh | GIV Gai3 FP | Sa growth 42C | Sa growth 42C second temp
- Cc1cc(C)cc(NC(=O)CSc2oc(-c3ccccc3)nc2S(=O)(=O)c2ccccc2)c1
  4 | 101 | 100 | 101
- CCC(CO)NCc1ccc(-c2cccc(Cl)c2)o1 (stereo unspecified)
  -22 | 106 | / | /
- COc1ccc(NC(=O)CN(C)c2nc3cc(C)nn3c3ccccc23)cc1
  -13 | / | 102 | 100
- Brc1ccc(-c2nn3c(-c4ccccn4)nnc3s2)cc1
  -17 | 105 | / | /
- O=C(COc1ccccc1)N/N=C/c1ccccc1
  -4 | 101 | 108 | 111
- Cc1cc(C)n2nc(CC#N)c(C#N)c2n1
  7 | 102 | / | /
- COc1cccc(NC(=O)CSc2ncnc3ccccc23)c1
  / | 102 | 102 | 88
- COc1cc(OC)c(NC(=O)N2CCN(S(=O)(=O)c3ccc4c(ccn4C)c3)CC2)cc1Cl
  -13 | 104 | / | /
- CCOC(=O)c1ccccc1NC(=O)Cn1cc(C(=O)OCC)c(=O)c2ccc(C)nc21
  -9 | 122 | / | /
- CCc1ccc(-c2[nH]nc3nc(-c4ccc(OC)cc4)cc(C(=O)NCCc4ccc(OC)c(OC)c4)c23)cc1
  / | 107 | 114 | 87

# (continued)
# Below each compound – HCMV NEC inh | GIV Gai3 FP | Sa growth 42C | Sa growth 42C second temp
- CCOC(=O)c1c(C)[nH]c(C(=O)N2CCC(CC(=O)NCc3ccc(Cl)cc3)CC2)c1C
  -17 | 109 | / | /
- COC(=O)c1cc2c(cc1NC(=O)c1cc(-c3ccccn3)nc3ccccc13)OCO2
  -15 | 109 | / | /
- CCc1ccc(-n2c(=O)c3c4c(sc3n(CC(=O)NCCCOC)c2=O)CCC4)cc1
  3 | 104 | 101 | 96
- CN(C)S(=O)(=O)c1ccc(N2CCCC2)c(C(=O)OCn2nnc3ccccc3c2=O)c1
  -41 | / | 77 | 86
- CCN(C(=O)Cn1cc(C(=O)c2cccs2)c2ccccc21)c1ccccc1
  -24 | 105 | 102 | 76
- CSc1sc(C2=NNC(O)(C(F)(F)F)C2)c2c1C(=O)CCC2(C)C (stereo unspecified)
  -37 | 106 | 99 | 23
- CC(C)(C)c1ccc(NC(=O)NNc2ncccc2C#N)cc1
  -15 | 102 | 95 | 89
- COc1cccc(CN(Cc2nnnn2C2CCCCC2)CC2CCCO2)c1 (stereo unspecified)
  -3 | 101 | 80 | 75
- O=C(CN1C(=O)c2ccccc2C1=O)Nc1ccc(N2CCCS2(=O)=O)cc1
  -15 | 93 | / | /
- COC(=O)c1ccc(/C=N\NC(=O)CNc2ccc(C)cc2)cc1
  -12 | 98 | 114 | 99

# Other results.
# Below each compound – HCMV NEC inh | GIV Gai3 FP | Sa growth 42C | Sa growth 42C second temp
- O=C(CSc1ncnc2nc(N3CCSCC3)sc12)Nc1ccc(Br)cc1F
  -13 | 102 | / | /
- O=C(Nc1ccccc1N1CCOCC1)c1cc(C2CC2)nn1-c1ccccc1
  -23 | / | 69 | 89
- Cn1c2c(c(=O)n(C)c1=O)C(c1ccccc1)C(C#N)=C(N)O2 (stereo unspecified)
  -3 | / | 77 | 86
- COc1cccc(N=CC2=C3N(CCC2)c2ccccc2C3(C)C)c1
  -43 | / | 79 | 88
- Cc1ccc2c(CC(=O)O)coc2c1
  -24 | / | 88 | 78
- CCCCSCCCNC(=O)c1cn(C)c2ccc(S(=O)(=O)N3CCCC3)cc2c1=O
  0 | 100 | 89 | 100
- O=C(O)C1COc2ccccc2C1 (stereo unspecified)
  -8 | / | 96 | 90
- COc1ccc(Cn2c(SCC(=O)N3CCN(c4ccc(F)cc4)CC3)nc3ccccc32)cc1
  -31 | 100 | 107 | 85
- COCCCNC(=O)C1CCN(c2cc(C)nc3c(-c4ccc(OC)c(OC)c4)c(C)nn23)CC1
  -16&-30 | 105&98 | 108 | 85
- O=C(CO/N=C/c1ccco1)Nc1ccc(OC(F)F)cc1
  -26 | / | 86 | 89

# More records follow:
# Below each compound – HCMV NEC inh | GIV Gai3 FP | Sa growth 42C | Sa growth 42C second temp
- Cc1ccc(N(CC(=O)NCCc2ccc(Cl)cc2)S(=O)(=O)N(C)C)cc1
  0 | 113 | 95 | 75
- O=C(CSc1ncnc2c1oc1ccccc12)c1ccc(Cl)cc1
  -15 | 102 | 92 | 94
- O=C(Nc1ccccc1F)C1CCC(=O)N1S(=O)(=O)c1ccccc1 (stereo unspecified)
  -12 | 107 | / | /
- CC(C)(C)C(=O)Nc1noc2ccccc12
  -18 | 101&97 | 100 | 77
- COc1ccc(C(CNC(=O)COc2ccccc2)N2CCCCC2)cc1 (stereo unspecified)
  11&-11 | 102 | 97 | 102
- COc1ccc(NC(=O)COc2cccc3c2CCN(C)C3=O)cc1
  -9 | 99 | 98 | 88
